Compound activity: PubChem, National Center for Advancing Translational Sciences (NCATS)
TRPV1 PAM: enhances activation of the human vanilloid receptor TRPV1; Q8NER1; TRPV1-expressing cells, Fluo-8 calcium influx, capsaicin EC20 potentiation; host cell line not named in the record; control for the full effect not named in the record; potentiation, % at 8.33 µM; actives 0.02% (n = 320,000); AID 540277; active means potentiation above 80%; inconclusive means 30% to 80%; inactive means below 30%; note: 0% is about no effect
Target sequence (Q8NER1 whole entry, looked up): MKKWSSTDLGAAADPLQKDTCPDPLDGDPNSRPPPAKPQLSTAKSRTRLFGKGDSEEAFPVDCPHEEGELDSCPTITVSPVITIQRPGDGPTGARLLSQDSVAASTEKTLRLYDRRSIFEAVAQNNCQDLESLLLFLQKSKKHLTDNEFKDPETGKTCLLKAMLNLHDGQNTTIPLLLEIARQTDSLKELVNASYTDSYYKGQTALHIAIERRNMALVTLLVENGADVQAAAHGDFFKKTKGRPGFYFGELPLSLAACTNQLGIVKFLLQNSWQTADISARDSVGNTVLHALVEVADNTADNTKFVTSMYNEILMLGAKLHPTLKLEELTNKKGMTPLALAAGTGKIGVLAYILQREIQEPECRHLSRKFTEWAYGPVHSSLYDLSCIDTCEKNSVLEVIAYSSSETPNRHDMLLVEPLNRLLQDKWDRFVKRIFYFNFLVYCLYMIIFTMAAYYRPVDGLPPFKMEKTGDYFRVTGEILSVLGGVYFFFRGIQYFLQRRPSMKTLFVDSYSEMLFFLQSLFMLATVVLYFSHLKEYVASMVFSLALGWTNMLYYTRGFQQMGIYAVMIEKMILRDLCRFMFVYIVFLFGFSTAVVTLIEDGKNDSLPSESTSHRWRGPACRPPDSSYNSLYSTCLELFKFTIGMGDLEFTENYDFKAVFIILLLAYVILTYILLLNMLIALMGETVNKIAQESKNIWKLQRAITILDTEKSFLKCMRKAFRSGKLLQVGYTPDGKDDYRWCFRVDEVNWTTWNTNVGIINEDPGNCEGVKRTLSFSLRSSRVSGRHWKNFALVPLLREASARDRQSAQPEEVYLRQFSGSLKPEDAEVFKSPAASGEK
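Cells expressing TRPV1 were dye-loaded with Fluo-8 and read kinetically: 10 s baseline, 3 min after compound (agonist portion), then 2 min after EC20 capsaicin (allosteric enhancer portion). Calcium-bound dye fluorescence at 480/520 nm.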
gsp antag: antagonizes gsp, the McCune-Albright syndrome mutation; Potency, µM (highest dose often 76.9 µM), for the others: at the highest dose activity change, negative = inhibition, usual class: inhibitors; AID 624288; gsp-mutant cells, cAMP HTRF, 30 min; control for the full effect not named in the record; actives 0.4% (n = 340,000); active = falling curve of any shape with a large fitted effect; inconclusive = falling curve, mostly with a smaller effect; inactive = flat or rising curve; cell line not stated here;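 note: intracellular cAMP measured with PDE inhibitor Ro 20-1724 present during compound exposure; potency is the fitted concentration of half-maximal effect; % is set by controls: 0 for no effect and ±100 for the full control effect; nearly all actives have a fitted effect of over 65% in size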
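Measurement of cellular cAMP by homogeneous time-resolved fluorescence following a 30 min compound exposure at 37C. The PDE inhibitor […] was present throughout; the assay buffer was DPBS with 0.05% BSA and 0.005% Tween 20.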
Sfp inh: blocks B. subtilis Sfp PPTase activity. Q9F4F7. AID 1490. Biochemical Sfp PPTase activity, qHTS. Potency, µM, inactives show max response, negative = inhibition, most hits filed as inhibitors. actives 3.5% (n = 310,000); active = well fitted inhibition curve with a large enough effect; inconclusive = small, poorly fitted or top-dose-only effect, or another doubt; inactive = no such curve, though single readings can be large or run the other way;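 note: the enzyme is Sfp with the accession as filed and its product quenches rhodamine fluorescence; potency is the fitted concentration of half-maximal effect; 0% = enzyme reaction without inhibitor and -100% = no enzyme wells; top concentration of the series not given in the record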
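After 15 min at room temperature with compound, 15 nM Sfp received 5 uM rhodamine-CoA plus 12.5 uM BHQ-2-ybbR (50 mM Hepes pH 7.6, 10 mM MgCl2). Rate came from the fluorescence difference over 30 min, ex 525/em 598 nm.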
TRPML1 inh: blocks the human TRPML1 channel. Q9GZU1. TRPML1-inducible cells, Ca2+ dye fluorescence, FDSS; hits give low values; inhibition of EC80 agonist-evoked calcium signal. activity change, negative = inhibition, % (no concentration beside the values). actives 0.02% (n = 390,000). AID 624415; in the data active means activity change below about -50%; inconclusive means about -30% to -50%; inactive means above about -30%;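 note: stimulus is agonist 54-4 at its EC80 concentration; % is set by controls: 0 for no effect and ±100 for the full control effect; compound concentration not given in the record; the text of the record puts the active cut at -80%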
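Tet-induced TRPML1-DL cells loaded with Ca8 no-wash calcium dye were read kinetically on FDSS. Compound addition was followed by EC80 agonist 54-4 (4 uM final); inhibition was read over 110 s.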
Menin-MLL FL inh: menin-MLL binding inhibition, fluorescein peptide. Fluorescence polarization, fluorescein-MLL peptide displacement from menin. FP activity change, % at 61.4 µM. 290,000 tested, under 10 active; inconclusive = falling polarisation curve, or a change in total fluorescence; inactive = total fluorescence flat and polarisation flat or rising; no compound was filed as active; the % refers to the polarisation; negative = inhibition;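 note: % of control where 0% means no effect; inhibitors lower the polarisation; unlabelled MLL peptide was the positive control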
ClpP mod: qHTS Assay for Activators of ClpP; ATP-dependent Clp protease proteolytic subunit (Bacillus subtilis (strain 168)), P80244; Potency, µM (series often up to 57.5 µM), without a hit: at the highest dose activity change, negative = active; AID 651965, 2013; actives 1.9% (n = 340,000); purified B. subtilis ClpP, FRET peptide cleavage, 20 min; active = well fitted falling curve with a large enough effect; inconclusive = small, poorly fitted or top-dose-only effect; inactive = no such curve, though single readings can be large or run the other way; note: potency is the fitted concentration of half-maximal effect; the source files actives as falling curves though it sought activators and does not explain the sign; nearly all actives have a fitted effect of over 65% in size; many hits overshoot -100%
Target sequence (P80244 whole entry, looked up): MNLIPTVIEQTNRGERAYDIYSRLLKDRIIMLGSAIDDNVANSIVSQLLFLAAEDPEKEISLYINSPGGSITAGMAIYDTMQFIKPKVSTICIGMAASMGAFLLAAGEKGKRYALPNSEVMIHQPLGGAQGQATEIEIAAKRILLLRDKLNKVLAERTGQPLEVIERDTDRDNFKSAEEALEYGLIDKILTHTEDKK
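Purified B. subtilis ClpP, 10 microg/mL final in Tris/HCl pH8 with KCl, BSA, glycerol and Tween-20, cleaved an Abz/nitrotyrosine-quenched decapeptide. Fluorescence (ex 320, em 430) was read at 0 and 20 min at room temperature. Delta was normalized to 5.8 microM ADEP and DMSO/no-enzyme controls.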
gsp ag: agonists of gsp mutant (McCune-Albright syndrome); gsp mutant cells, cAMP HTRF, 30 min; control for the full effect not named in the record; Potency, µM (doses to about 76.9 µM), inactives show top-dose activation (cAMP increase), actives largely listed as activators; actives 0.13% (n = 340,000); AID 624287; active = well fitted activation curve with a large enough effect; inconclusive = small, poorly fitted or top-dose-only effect, or another doubt; inactive = no such curve, though single readings can be large or run the other way; cell line not stated here;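 note: phosphodiesterase inhibitor Ro 20-1724 added with compounds to block cAMP breakdown; potency is the fitted concentration of half-maximal effect; nearly all actives have a fitted effect of over 60% in size; about a fifth of the inactives were tested at one dose only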
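Cells stably selected in G418 were plated at 2000/well, grown 16-24 hr, then given compounds in DMSO with the PDE inhibitor […] (300 uM solution added) for 30 min at 37C; cAMP was read by HTRF.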
* marks the source's active call; other numbers are inactive results; ? = inconclusive; nt = no result given; & = joins results of further samples; [ ] = dose if it differs, or a comment.

SMILES	TRPV1 PAM	gsp antag	Sfp inh	TRPML1 inh	Menin-MLL FL inh	ClpP mod	gsp ag
Cc1ccc(/C=C2\SC(=S)N(CCC(=O)NNS(=O)(=O)c3ccc(C)cc3)C2=O)cc1	2	-4%	?	10	?	0.4%	-21%
N=c1ncn(Cc2ccccc2)c2nc(SCCOc3ccccc3)[nH]c12	21	9%	21%	1	0.4	-3.8%	4%
O=C(CN1CCN(c2ccccn2)CC1)Nc1cc(F)ccc1F	-6	-11%	9%	-6	0.5	nt	-5%
O=C(Nc1ccc(F)cc1)C(c1ccccc1)N1CCN(S(=O)(=O)c2ccc3ccccc3c2)CC1 (configuration not stated)	-9	-2%	-3%	7	5.1	-12%	?
COc1ccc(NC(=O)COC(=O)c2ccc(S(=O)(=O)N(C)c3ccccc3OC)cc2)c(OC)c1	1	nt	23%	nt	3.0	nt	nt
CCc1ccccc1OCC(=O)Nc1ccc(N2CCCC2)cc1C	8	0%	nt	15	nt	nt	-13%[15.4 µM]
CCOc1ccc(NC(=O)CSc2nc3ccccc3nc2N2CCCC2)cc1	15	-9%	?	-6	3.0	130%	-7%
O=C(COC(=O)c1ccccn1)c1ccc(Br)cc1	-11	-2%	19%	-6	2.6	-0.8%	?
O=C(CNCc1ccccc1Cl)Nc1ccc2c(c1)OCCO2	nt	5%	-19%	10	-0.4	1.3%	3%
COc1ccc(CC(=O)NNC(=O)c2ccco2)cc1	-3	-21%	10%	-6	-14	nt	8%[15.4 µM]
CC(=O)Nc1ccc(SC[C@H](Cc2ccccc2)N2CCN(CC(C)C)CCC2=O)cc1	-20	4%	-17%	0	-0.5	-5.2%	nt
COc1ccc(-c2noc(-c3cc(C)cc(C)c3)n2)cc1OC	10	-2%	22%	17	1.8	-3.0%	-102%[inhibitor]
COc1ccc(N=C2SC(C(=O)Nc3ccc4c(c3)OCO4)CC(=O)N2C)cc1 (configuration not stated)	-8	-18%&-11%	4%	-2&3	0.3	-0.6%	-23%&-12%
Cc1ccc(C)c(NS(=O)(=O)c2ccc(NC(=O)CSc3ccc(Cl)cc3)cc2)c1	1	-1%	7%	5	6.6	0.9%	27%
O=C(CCN1C(=O)C2C3CCC(C3)C2C1=O)OCC(=O)c1cccc([N+](=O)[O-])c1 (configuration not stated)	-8	-1%	?	-5	3.9	13%	12%
CC1C(=O)N(Cc2ccccc2F)c2ccccc2N1C(=O)c1c(F)cccc1F (configuration not stated)	-8	?	-21%	1	-11	-0.1%	-19%
O=C(N1CCN(Cc2ccc3c(c2)OCO3)CC1)C12CC3CC(CC(C3)C1)C2	3	-1%	12%	-6	-0.6	-0.1%	22%
O=C(CCN1CCN(c2ccccc2)CC1)Nc1ccccc1F	-23	10%	15%	-7	3.3	-0.2%	-3%
Cc1ccc(NC(=O)C2C3CCCC2C3c2ccccc2)cc1C (configuration not stated)	8	-10%	6%	-7	1.0	-2.2%	11%
O=[N+]([O-])c1cccc(-c2ccc(C(=S)N3CCN(c4ccccc4)CC3)o2)c1	1	-8%	13µM*	38	-1.0	nt	4%[15.4 µM]
CCOC(=O)N1CCC(N2CCN(Cc3ccccc3)C(CCO)C2)CC1 (configuration not stated)	-9	9%	0%	39	-3.7	nt	-31%[inhibitor]
COc1ccc(CN(C)C(=S)Nc2ccc(Cl)cc2Cl)cc1	10	-15%	-22%	10	-0.4	-1.5%	16%
CC(=O)c1cccc(NC(=O)c2ccc(S(=O)(=O)N3CCCCC3)cc2)c1	-10	-3%	-9%	-5	-0.2	1.1%	-8%
Cc1ccc(CNC(=O)c2ccc3c(=O)n4c(-c5ccc(C)cc5)csc4nc3c2)cc1	5	0%	11%	-6	-1.2	4.4%	-35%[inhibitor]
CC(C)(C)c1cn(-c2ccccc2)c(=S)[nH]1	10	7%	-18%	4	1.3	2.3%	-23%

Entries shown so far that have four or more nitrogen atoms:
SMILES	TRPV1 PAM	gsp antag	Sfp inh	TRPML1 inh	Menin-MLL FL inh	ClpP mod	gsp ag
N=c1ncn(Cc2ccccc2)c2nc(SCCOc3ccccc3)[nH]c12	21	9%	21%	1	0.4	-3.8%	4%
O=C(CN1CCN(c2ccccn2)CC1)Nc1cc(F)ccc1F	-6	-11%	9%	-6	0.5	nt	-5%
CCOc1ccc(NC(=O)CSc2nc3ccccc3nc2N2CCCC2)cc1	15	-9%	?	-6	3.0	130%	-7%

Going on with the list.
SMILES	TRPV1 PAM	gsp antag	Sfp inh	TRPML1 inh	Menin-MLL FL inh	ClpP mod	gsp ag
CCCn1c(SCc2nc3sc(C)c(C)c3c(=O)[nH]2)nc2ccccc2c1=O	8	8%	-1%	3	6.7	1.3%	5%
O=C(NCCN1CCN(c2cccc(Cl)c2)CC1)C1CCCN(S(=O)(=O)c2cnc[nH]2)C1 (configuration not stated)	3	9%	-4%	-15	2.5	-1.4%	22%
O=C(O)c1ccccc1N/N=C/C1=C(N2CCOCC2)C(=C\c2ccccc2)/CC1	6	-33%	-12%	-6	?	nt	-8%[15.4 µM]
C=CCOc1ccc(/C=C/C(=O)OCC(=O)NCc2cccc(OC)c2)cc1	-1	-3%	nt	-9	nt	-6.6%	29%
Brc1ccc(C2=Nn3c(nnc3-c3n[nH]c4c3CCC4)SC2)cc1	-6	2%	-10%	0	3.5	-1.9%	21%
COc1ccccc1C(=O)NC(=O)COC(=O)CCS(=O)(=O)c1ccc(C)cc1	7	2%	nt	-8	nt	-29%	15%
O=C(CCCCC(=O)Nc1ccc(F)cc1F)Nc1ccc(F)cc1F	nt	8%	nt	2	nt	0.2%	0%[15.4 µM]
CC(=O)c1c[nH]c(C(=O)NCc2cccc(C(F)(F)F)c2)c1	-3	10%	11%	-4	-19	-1.2%	25%
CCc1nnc(NS(=O)(=O)c2ccc(NC(=O)Nc3ccc(OC)cc3)cc2)s1	5	4%	12%	-1	-0.6	-3.0%	-6%[15.4 µM]
CC(=O)Nc1cc(Br)ccc1O	-8	0%	-20%	6	0.9	-2.3%	0%
Clc1ccc(Cn2cccn2)cn1	7	-24%	19%	-8	1.3	nt	-6%[15.4 µM]
Cc1ccc(N(CC(=O)Nc2ccc3c(c2)OCCO3)S(C)(=O)=O)cc1	-13	-3%	12%	-1	0.4	nt	-10%[15.4 µM]
COC(=O)c1ccc(CN2CCC(CO)(CCOc3ccccc3)CC2)cc1	0	-2%	11%	6	0.8	-0.1%	1%
CC(C)[C@H](NC(=O)c1ccccc1)C(=O)OCC(=O)NCc1ccc2c(c1)OCO2	nt	3%	nt	-14	nt	9.3%	-7%[15.4 µM]
COc1cccc(/C=C/C(=O)NNC(=O)c2ccncc2)c1OC	-14	10%	nt	-3	nt	2.3%	-11%
CC1Nc2ccccc2C(=O)N1NS(=O)(=O)c1ccccc1 (configuration not stated)	2	13%	19%	2	3.0	-24%	1%
Cc1ccc(NC(=O)CSc2nnc(C3CC3)n2C)cc1S(=O)(=O)N1CCCCC1	1	-6%	nt	-9	nt	0.7%	-32%[inhibitor]
CCn1c(=O)c(=O)[nH]c2c(=O)oc3ccc(S(=O)(=O)Nc4ccc(OC)cc4)cc3c21	-1	-8%	5%	4	0.0	-1.4%	17%[15.4 µM]
COc1ccc(-c2cc3c(=O)n(CC(=O)NCCN4CCCC4)nc(C)n3n2)cc1	11	?	10%	-11	nt	4.3%	1%
CCOc1cc(/C=C(\C#N)C(=O)NCC2CCCO2)ccc1OCC(N)=O (configuration not stated)	0	3%	1%	-9	1.8	-1.6%	-18%
CC(=O)c1cccc(NC(=O)CSc2nc(N3CCOCC3)nc(N3CCOCC3)n2)c1	2	-26%	6%	-17	nt	0.7%	-17%
O=C(Nc1nc2ccccc2s1)Nc1ccc([N+](=O)[O-])cc1Cl	5	nt	-5%	nt	3.0	nt	nt
COc1nc(Oc2ccc(/C=N/O)cc2)nc(N(C)C)n1	19	11%	-2%	0	1.0	-1.5%	-33%[inhibitor]
O=C(COC(=O)c1cc(=O)[nH]c2ccccc12)NC1CCCCC1	nt	18%	nt	14	nt	1.3%	2%[15.4 µM]
Cc1ccc(C)c(S(=O)(=O)NNC(=O)c2sc(NS(=O)(=O)c3ccccc3)nc2C)c1	-7	3%	4%	22	-4.4	-3.7%	27%

Filtered by structure, the compounds so far with bromine (3)
SMILES	TRPV1 PAM	gsp antag	Sfp inh	TRPML1 inh	Menin-MLL FL inh	ClpP mod	gsp ag
O=C(COC(=O)c1ccccn1)c1ccc(Br)cc1	-11	-2%	19%	-6	2.6	-0.8%	?
Brc1ccc(C2=Nn3c(nnc3-c3n[nH]c4c3CCC4)SC2)cc1	-6	2%	-10%	0	3.5	-1.9%	21%
CC(=O)Nc1cc(Br)ccc1O	-8	0%	-20%	6	0.9	-2.3%	0%

Remaining list, next part.
SMILES	TRPV1 PAM	gsp antag	Sfp inh	TRPML1 inh	Menin-MLL FL inh	ClpP mod	gsp ag
CCC1CCCCN1CC(O)COCc1cccc(OC)c1 (configuration not stated)	12	5%	6%	-9	0.0	nt	5%
Clc1ccc(N/N=C/c2ccncc2)cc1Cl	-4	3%	-17%	-13	3.5	-2.3%	-24%
O=C(N/N=C/C=C/c1ccccc1)c1ccc(Br)cc1	-13	5%	-1%	-7	-1.0	-1.2%	14%
CCOC(=O)c1cccc(Nc2ncnc3ccccc23)c1	-7	-9%	14%	-7	0.4	-4.6%	0%
Fc1ccc(/C=N/NC(=S)Nc2cccnc2)cc1F	13	-13%	-5%	-15	1.7	0.2%	8%
CC(=O)N1CCc2c(sc(NC(=O)c3ccc(S(=O)(=O)N(C)CC4CCCO4)cc3)c2C(N)=O)C1 (configuration not stated)	nt	nt	nt	1	nt	-3.6%	?
